Screens as filed in PubChem.
Beta2AR agonist = agonists of human beta-2 adrenergic receptor inducing internalization; P07550; Am2.2-beta2AR cells, FAP receptor internalization, flow cytometry; reference of the scale not given here; response, % (no concentration beside the values); 340,000 tested, 0.43% active; AID 504454;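 active = response above a set limit, near 3 SD of response in nonfluorescent compounds, cut at about 42% in these data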;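 note: stock transfer was 100 nL into about 11 µL; a reference agonist was the positive control; negative values mostly stem from fluorescent compounds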
Target sequence (P07550 whole entry, looked up): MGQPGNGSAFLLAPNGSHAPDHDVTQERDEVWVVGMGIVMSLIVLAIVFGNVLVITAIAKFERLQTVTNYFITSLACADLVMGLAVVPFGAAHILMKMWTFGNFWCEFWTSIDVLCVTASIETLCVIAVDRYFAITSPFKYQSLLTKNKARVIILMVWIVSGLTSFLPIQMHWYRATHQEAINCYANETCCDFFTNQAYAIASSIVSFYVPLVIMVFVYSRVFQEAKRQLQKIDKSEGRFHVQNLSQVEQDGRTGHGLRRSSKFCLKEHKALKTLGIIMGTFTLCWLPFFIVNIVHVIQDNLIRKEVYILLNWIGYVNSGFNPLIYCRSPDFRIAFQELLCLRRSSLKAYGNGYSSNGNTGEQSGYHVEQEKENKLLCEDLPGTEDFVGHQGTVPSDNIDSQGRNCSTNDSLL
E coli growth = E. coli growth inhibition; Escherichia coli growth, OD600, 23 h; active compounds read low; OD600 absorbance (no concentration beside the values); 330,000 tested, 0.21% active; AID 1053175;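 active = OD600 absorbance below the run mean of sample wells minus 3.6 SD, in any replicate, cut at about 0.56 in these data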;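 note: stock transfer was 300 nL into about 60 µL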
LANA-H2B inh = blocks KSHV LANA binding to histone H2A/H2B; 320,000 tested, 0.6% active; inhibition, % (concentration not given with the values); AID 2629; cell-free LANA-H2A/H2B peptide, fluorescence polarization; in the data active = inhibition mostly above about 10%, no sharp cut-off; inactive = mostly below about 6.7%;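 note: stock transfer was 7.5 nL into about 10 µL; 0% = median of vehicle wells and 100% = median of positive control wells; one replicate is shown; the record names a cut of 25% in any replicate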
A1 inh = inhibitors of the anti-apoptotic protein A1, read as caspase activation. caspase activation, % (no concentration beside the values). AID 2462. MEF A1-2A-BIM cells, Caspase-Glo 3/7 luminescence, 3 h; percent of clofoctol response, vehicle zero. 330,000 tested, 0.066% active;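 active = over half of replicate activation scores above 10%, or exactly half above 10 with the replicate mean above 10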;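 note: wells of about 30 µL received 50 nL stock; many hits fall short of the cut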
UCH37 DUB inh = blocks the human deubiquitinase UCH37; Q9Y5K5; purified proteasome/UCH37, Ub-AMC cleavage fluorescence; inhibition, % (no concentration beside the values); 330,000 tested, 0.33% active; AID 588478;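 active = mean of two replicates above 20%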;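 note: 0% = compound-free wells with enzyme and 100% = wells lacking proteasome; stock transfer was 100 nL into about 20 µL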
Target sequence (Q9Y5K5 whole entry, looked up): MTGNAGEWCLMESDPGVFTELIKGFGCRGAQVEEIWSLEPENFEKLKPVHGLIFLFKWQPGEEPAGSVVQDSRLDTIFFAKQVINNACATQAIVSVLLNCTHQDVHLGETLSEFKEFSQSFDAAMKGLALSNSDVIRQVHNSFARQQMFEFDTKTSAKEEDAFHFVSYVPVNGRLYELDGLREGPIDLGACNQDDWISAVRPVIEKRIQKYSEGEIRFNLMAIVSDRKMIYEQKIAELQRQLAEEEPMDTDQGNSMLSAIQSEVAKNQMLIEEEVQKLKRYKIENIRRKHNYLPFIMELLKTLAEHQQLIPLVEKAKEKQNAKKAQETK
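Reagent: Ub-AMC substrate; assay system: Proteasome-associated human UCH37 deubiquitinase; controls: no-proteasome and no-compound wells; read-out: % inhibition of Ub-AMC cleavage fluorescence; timing: 30 min preincubation with enzyme, 25 min cleavage at room temperature; signal: AMC fluorescence from Ub-AMC cleavage, excitation 355 nm, emission 460 nm; buffer or medium: Tris-HCl pH 7.4 plus ovalbumin, ATP-MgCl2, DTT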
HNF4A DNA FP = change in binding of human HNF4 alpha to DNA; P41235; HNF4a-FITC DNA binding, fluorescence polarization, 1 h; activity change, % at 10 µM; 360,000 tested, 0.3% active; AID 1224865; in the data active = activity change above about 30%, passing the limit was not always enough;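 note: controls were the assay level and a saturating level of protein; the project sought stronger binding though the title names inhibitors; some compounds called inactive have numbers as strong as hits; positive values seem to mean higher polarization but the record does not say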
Vif A3G = HIV-1 Vif–A3G interaction blockers – biochemical, TR-FRET, GST-Vif 1-94, biotin-A3G peptide, dose response retest, primary screen (AID 1117319). 260,000 tested, 0.57% active. inhibition, %; hits with a dose series show IC50 in µM. TR-FRET GST-Vif / biotin-A3G peptide binding; higher % means a stronger effect; test concentration not given here; strong numbers were not always called active;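 active = above the screen mean plus three standard deviations and confirmed in dose response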;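 note: Vif residues 1-94 fused to GST binding biotinylated APOBEC3G peptide 110-148; 0% = full assay without inhibitor and 100% = GST in place of GST-Vif; retest series ran down from 100 µM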
Active calls of the source: *. Outcome played no part in choosing rows; 2.1% or so of the library scored in one or more.

Screening O=C(O)c1ccccc1CSc1nc2ccccc2n1Cc1ccccc1C(=O)O returned Beta2AR agonist 8.6, E coli growth 0.688, LANA-H2B inh -4.3, A1 inh 0.7, UCH37 DUB inh 5.7, HNF4A DNA FP -1.4 and Vif A3G 0.7%.
`CC(=O)NN1C(=O)/C(=C/c2ccc(C(C)C)cc2)SC1=S` gave Beta2AR agonist -0.3, E coli growth 0.722, LANA-H2B inh 5.0, A1 inh -0.5, UCH37 DUB inh 1.1, HNF4A DNA FP -1.4 and Vif A3G -3.5%.
For COC1CCN(C(=O)CC2C(=O)NCCN2CC(C)(C)C)CC1 (stereo not drawn) the results were Beta2AR agonist 8.6, E coli growth 0.719, LANA-H2B inh 4.2, A1 inh 0.7, UCH37 DUB inh -6.2 and HNF4A DNA FP 0.0.
`COc1ccc(CCNC(=O)c2cc(S(=O)(=O)N3CCC4(CC3)OCCO4)ccc2F)cc1OC` gave Beta2AR agonist -3.8, E coli growth 0.695, LANA-H2B inh 0.9, A1 inh -0.6, UCH37 DUB inh 6.7, HNF4A DNA FP 1.6 and Vif A3G 18.4%.
Screening CC1=C(C)/C(=N\OS(=O)(=O)c2ccc(C)cc2)C=CC1=O returned Beta2AR agonist 31.6, LANA-H2B inh 1.0, A1 inh 0.5, HNF4A DNA FP -1.3 and Vif A3G 29.2%.
`O=C(Oc1nsnc1N1CCCCC1)N1CCOCC1` gave Beta2AR agonist -7.7, E coli growth 0.708, LANA-H2B inh -0.7, A1 inh -0.5, UCH37 DUB inh 1.8, HNF4A DNA FP -3.3 and Vif A3G 2.5%.
For COCC(C)n1c(SCC(=O)Nc2c(C)n(C)n(-c3ccccc3)c2=O)nc2ccccc2c1=O (stereo not drawn) the results were Beta2AR agonist -7.2, E coli growth 0.697, LANA-H2B inh -0.7, A1 inh 0.4, UCH37 DUB inh 5.2 and HNF4A DNA FP -5.0.
CCOc1ccc(-n2cc(C(=O)Nc3cccc(OC)c3)c3cc(OC)c(OC)cc3c2=O)cc1 was read as Beta2AR agonist 4.6, E coli growth 0.74, LANA-H2B inh 2.3, A1 inh 0.8, UCH37 DUB inh 2.0, HNF4A DNA FP 0.5 and Vif A3G -18.6%.
`Fc1ccc(CNc2ncnc3c2cnn3-c2ccccc2)cc1` gave Beta2AR agonist -12.7, E coli growth 0.771, LANA-H2B inh -1.3, A1 inh 0.6, UCH37 DUB inh 2.6, HNF4A DNA FP 2.6 and Vif A3G -3.1%.
O=C(c1cc(-c2ccc(Cl)cc2Cl)on1)N1CCCCCC1 was read as Beta2AR agonist -12.7, E coli growth 0.684, LANA-H2B inh 9.3, A1 inh 0.6, UCH37 DUB inh 3.9 and HNF4A DNA FP -0.7.
`Cc1ccc(NC(=O)Cc2nnc(SCC(=O)Nc3ccc(N4CCOCC4)cc3)n2C)cc1` gave Beta2AR agonist 11.2, E coli growth 0.613, LANA-H2B inh 0.5, A1 inh 0.9, UCH37 DUB inh -0.2, HNF4A DNA FP 0.2 and Vif A3G 5.3%.
O=S(=O)(c1ccccc1)c1cnn(-c2ccccc2)c1-c1ccc(Cl)cc1 was read as Beta2AR agonist 14.9, E coli growth 0.719, LANA-H2B inh 3.6, A1 inh -0.1, UCH37 DUB inh 2.2, HNF4A DNA FP 1.3 and Vif A3G -4.8%.
For C=CCn1c(-c2cccc(S(=O)(=O)N3CCOCC3)c2)n[nH]c1=S the results were Beta2AR agonist 9.9, E coli growth 0.668, UCH37 DUB inh -0.9, HNF4A DNA FP -1.2 and Vif A3G 0.1%.
Screening CCn1nc(C)cc1C(=O)NC1CC(C)(C)Cc2c1cnn2-c1cccc(F)c1 (stereo not drawn) returned Beta2AR agonist -8.0, E coli growth 0.727, LANA-H2B inh -2.7, A1 inh 1.2, UCH37 DUB inh 4.6, HNF4A DNA FP -1.7 and Vif A3G -7.8%.
For COc1ccc2cc3cc(C(=O)NCC4COc5ccccc5O4)oc3nc2c1 (stereo not drawn) the results were Beta2AR agonist 10.8, E coli growth 0.762, LANA-H2B inh 2.1, A1 inh -1.4, UCH37 DUB inh -98.6, HNF4A DNA FP -1.0 and Vif A3G -20.7%.
O=C(/C=C/c1ccccc1)NC(=S)Nc1ccccc1C(=O)NC1CCCCC1 was read as Beta2AR agonist -3.0, E coli growth 0.655, LANA-H2B inh -1.4, A1 inh 0.5, UCH37 DUB inh 1.8, HNF4A DNA FP 0.5 and Vif A3G 0.3%.
For COc1ccc(Br)cc1CN(C)C(=O)C1=CC=CN2CCS(=O)(=O)N=C12 the results were Beta2AR agonist -2.7, E coli growth 0.685, LANA-H2B inh 3.0, A1 inh -0.2, UCH37 DUB inh -1.7, HNF4A DNA FP 1.8 and Vif A3G -6.1%.
For Cc1oc(C(C)(C)C)cc1C(=O)NC(Cc1ccccc1)C(=O)O (stereo not drawn) the results were Beta2AR agonist -1.7, E coli growth 0.698, LANA-H2B inh -2.5, A1 inh 0.0, UCH37 DUB inh 3.1, HNF4A DNA FP 2.0 and Vif A3G 0.0%.
Screening CC1CCCCC12NC(=S)N(c1ccccc1)N2 (stereo not drawn) returned Beta2AR agonist -7.3, LANA-H2B inh 0.5, A1 inh -0.1, HNF4A DNA FP 2.4 and Vif A3G 4.9%.
For CCOC(=O)[C@@H]1[C@H]2COc3ccc(Br)cc3[C@@H]2N2C(=O)N(c3ccc(Cl)cc3)C(=O)[C@@]12C the results were Beta2AR agonist -9.4, LANA-H2B inh -1.9, A1 inh 0.0, UCH37 DUB inh 1.9 and HNF4A DNA FP -2.5.
For Cc1ccc(C)c(N(CC(=O)NC2CCCC2)C(=O)c2cc3cc4cc(C)ccc4nc3s2)c1 the results were Beta2AR agonist -1.8, E coli growth 0.73, LANA-H2B inh 4.6, A1 inh 0.0, UCH37 DUB inh -7.0, HNF4A DNA FP -0.8 and Vif A3G 3.2%.
For O=C(/C=C/C(=O)NCc1cccs1)NCc1cccs1 the results were Beta2AR agonist 0.4, E coli growth 0.696, LANA-H2B inh -1.3, A1 inh 0.9, UCH37 DUB inh 2.6, HNF4A DNA FP -1.0 and Vif A3G -5.3%.
CCN(CC)CCCn1c(SCC(=O)Nc2cccc(F)c2)nnc1-c1ccoc1C was read as Beta2AR agonist 7.2, E coli growth 0.694, LANA-H2B inh -1.1, A1 inh 0.4, UCH37 DUB inh 1.1 and HNF4A DNA FP -0.1.
For Cc1nonc1OCC(C)(COc1nonc1C)NC(=O)c1ccccc1 the results were Beta2AR agonist -5.9, E coli growth 0.732, LANA-H2B inh 0.6, A1 inh 0.5, UCH37 DUB inh 2.1, HNF4A DNA FP -0.6 and Vif A3G 17.4%.

Looked up by compound from above, 2 records:
For Cc1oc(C(C)(C)C)cc1C(=O)NC(Cc1ccccc1)C(=O)O (stereo not drawn) the results were Beta2AR agonist -1.7, E coli growth 0.698, LANA-H2B inh -2.5, A1 inh 0.0, UCH37 DUB inh 3.1, HNF4A DNA FP 2.0 and Vif A3G 0.0%.
For Cc1nonc1OCC(C)(COc1nonc1C)NC(=O)c1ccccc1 the results were Beta2AR agonist -5.9, E coli growth 0.732, LANA-H2B inh 0.6, A1 inh 0.5, UCH37 DUB inh 2.1, HNF4A DNA FP -0.6 and Vif A3G 17.4%.

Other records follow:
`CCN(CC)S(=O)(=O)c1ccc(C(=O)NCCc2ccccn2)cc1` gave Beta2AR agonist 2.1, E coli growth 0.712, LANA-H2B inh 0.3, A1 inh 1.4, UCH37 DUB inh 3.8, HNF4A DNA FP -3.1 and Vif A3G 2.9%.
For c1ccc(Cn2c[n+](Cc3ccccc3)c3ccccc32)cc1 the results were Beta2AR agonist 5.3, E coli growth 0.696, LANA-H2B inh -1.9, A1 inh 0.4, UCH37 DUB inh 1.4 and HNF4A DNA FP 1.4.
`Cn1c(=O)c2c(nc(CN3CCCCC3)n2CCCc2ccccc2)n(C)c1=O` gave Beta2AR agonist -18.0, E coli growth 0.739, LANA-H2B inh -1.1, A1 inh 0.8, UCH37 DUB inh 2.2 and HNF4A DNA FP -1.1.
Screening O=C(Nc1nnc(-c2cccs2)s1)C1CC1 returned Beta2AR agonist -13.4, E coli growth 0.729, LANA-H2B inh -4.8, A1 inh 0.3, UCH37 DUB inh -37.3, HNF4A DNA FP 4.4 and Vif A3G -7.7%.
`O=C(OCCCOc1ccc(F)cc1)c1ccc(O)cc1O` gave Beta2AR agonist 4.6, E coli growth 0.693, LANA-H2B inh 6.5, A1 inh 0.2, UCH37 DUB inh 0.1, HNF4A DNA FP 5.7 and Vif A3G 4.3%.
Screening Cc1cc(Cl)c2ccc(Cl)cc2n1 returned Beta2AR agonist -6.4, E coli growth 0.63, LANA-H2B inh 5.7, A1 inh 1.0, UCH37 DUB inh 2.4, HNF4A DNA FP 4.5 and Vif A3G 1.9%.
`O=c1c2cc(Cl)ccc2[nH]c(=S)n1Cc1ccco1` gave Beta2AR agonist -4.8, E coli growth 0.73, LANA-H2B inh -4.2, A1 inh -0.7, UCH37 DUB inh 4.9, HNF4A DNA FP -4.1 and Vif A3G -3.9%.
`O=C(NCCCN1CCN(c2ccccc2)CC1)C1CCCN(c2ncnc3c2nc2n3CCCCC2)C1` (stereo not drawn) gave Beta2AR agonist -1.6, E coli growth 0.667, LANA-H2B inh -2.1, A1 inh 0.6, UCH37 DUB inh 1.0, HNF4A DNA FP 1.9 and Vif A3G 2.3%.
Screening Cc1ccc(C)c(NCC(=O)NNC(=S)Nc2ccccc2)c1 returned Beta2AR agonist 4.9, E coli growth 0.692, LANA-H2B inh -1.4, A1 inh 0.0, UCH37 DUB inh 1.2 and HNF4A DNA FP 3.4.
Screening Cc1ccc(-c2nnn(CC(=O)O)n2)cc1 returned Beta2AR agonist 8.1, E coli growth 0.751, LANA-H2B inh 1.0, A1 inh 1.2, UCH37 DUB inh 1.7, HNF4A DNA FP -2.3 and Vif A3G 1.6%.
CSc1ccccc1NC(=O)CN(C)CC(=O)Nc1ccccc1F was read as Beta2AR agonist -9.9, E coli growth 0.711, LANA-H2B inh 1.0, A1 inh -0.8, UCH37 DUB inh 4.3, HNF4A DNA FP 5.3 and Vif A3G 1.7%.
Screening CNC(=S)N(CCc1c(C)[nH]c2ccc(F)cc12)Cc1cccnc1 returned Beta2AR agonist -2.0, E coli growth 0.68, LANA-H2B inh -2.5, A1 inh 0.4, UCH37 DUB inh 0.6, HNF4A DNA FP -0.6 and Vif A3G -7.2%.
CCCCN1C(=S)NC[C@@H]1Cc1cccc2ccccc12 was read as Beta2AR agonist -0.2, LANA-H2B inh -5.8, A1 inh 1.5, UCH37 DUB inh 0.6, HNF4A DNA FP -3.0 and Vif A3G -2.4%.
`CC1CCCCN1C(=O)Cn1nnc(-c2cccnc2)n1` (stereo not drawn) gave Beta2AR agonist 4.4, E coli growth 0.638, LANA-H2B inh 4.5, A1 inh -0.5, UCH37 DUB inh -2.2, HNF4A DNA FP -15.2 and Vif A3G 18.8%.
Screening COCCNC(=O)c1ccc(N2CC3CC(C2)c2cccc(=O)n2C3)c(NC(=O)c2ccc(F)cc2)c1 (stereo not drawn) returned Beta2AR agonist 0.0, E coli growth 0.685, LANA-H2B inh 5.0, A1 inh 0.7, UCH37 DUB inh -0.5, HNF4A DNA FP 2.2 and Vif A3G 12.7%.
For COc1ccc(NC(C)C(=O)N2CCN(Cc3ccccc3)CC2)cc1 (stereo not drawn) the results were Beta2AR agonist -1.9, LANA-H2B inh -3.0, A1 inh 1.1, HNF4A DNA FP -1.5 and Vif A3G -2.3%.
COCC(C)(C)COS(N)(=O)=O was read as Beta2AR agonist -0.3, E coli growth 0.715, LANA-H2B inh 3.8, A1 inh -0.4, UCH37 DUB inh 0.2 and HNF4A DNA FP -3.0.
O=C(CCCN1C(=O)/C(=C/c2cccs2)SC1=S)Nc1ccc(O)cc1 was read as Beta2AR agonist -6.4, E coli growth 0.677, LANA-H2B inh 2.4, A1 inh 0.1, UCH37 DUB inh 3.2 and HNF4A DNA FP 0.0.
